Assay outcomes (PubChem BioAssay)
NPYLR7 agonist – mosquito NPYLR7 agonism; HEK293T NPYLR7/Galpha15, GCaMP6s calcium fluorescence; activation, % at 10 µM; actives 0.15% (n = 270,000); AID 1259423; in the data active = activation above about 40%;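 also: 0% = vehicle and 100% = reference agonist at the receptor; some compounds past the cut are filed as inactive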
NPYLR7 agonist max-min – recorded beside NPYLR7 agonist, whose call it bears; activation, %; measured here: Max-Min RFU normalised activation; some inactives read as strong as hits;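 span of the calcium signal over five minutes; 0% = vehicle and 100% = native peptide agonist; compound fluorescence can raise it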
Numbers without * were called inactive; & = joins results of further samples.

SMILES	NPYLR7 agonist	NPYLR7 agonist max-min
Cc1ccc2[nH]cc(-c3ccc(C)nc3)c2c1	4.3	3.4
COc1ccccc1C(=O)Nc1ccnn1C1CCN(C(=O)C(C)(C)C)CC1	3.1	1.6
CC(C)(C)c1ncc(CN2CCOC(CN)C2)cn1 (stereo not given)	2.8	1.3
Cc1noc(C)c1CC(=O)NC1CCCCC1Cc1ccco1 (stereo not given)	4.0	1.1
Cc1ccc(Cc2nsc(N3CCN(CCNC(=O)c4ccc(-c5ccccc5)cc4)CC3)n2)cc1	9.8	6.6
CCCCNC(=O)c1ccc2nc(CC)c(N(CCN(C)C)CC3CC3)n2c1	-3.5	-6.5
O=C(NC1CCCc2ccccc21)c1cncn1-c1cccc(-c2cccc3c2sc2ccccc23)c1 (stereo not given)	9.3	1.1
Cc1ccccc1S(=O)(=O)Nc1ncc(C(F)(F)F)cc1Cl	-1.2	-1.3
O=C(NCc1ccccc1Cl)c1cc2cn(CC3CCCO3)cc2cn1 (stereo not given)	24.4	18.4
Cc1cccc(C)c1N1C(=O)CC(N2CCC(C(=O)Nc3ccccc3)CC2)C1=O (stereo not given)	-1.6	-0.7
O=C1/C(=C\c2ccncc2)SC(=S)N1Cc1ccccc1	-0.4	-5.4
COc1ccc(NC(=O)CCN(CCCN2CCOCC2)c2nc(-c3ccc(OC)cc3)nc3ccccc23)cc1	7.6	19.0
COc1ccc(/C=C2/C(=N)N3N=C(Cc4ccccc4)SC3=NC2=O)cc1	-0.7	-1.6
CN(CC(=O)N1CCCC(O)(CO)CC1)Cc1ccccc1F (stereo not given)	9.7	4.8
O=c1[nH]nc(Cc2cccnc2)n1CCc1ccccc1	15.0	13.5
Cc1cccc(S(=O)(=O)NC(=O)C2(C)CCN2C(=O)C(C)(C)c2ccccc2)c1 (stereo not given)	-4.1	-7.2
COc1ccc(OC(C)C(=O)O)cc1 (stereo not given)	3.8	8.8
Cn1cc(C(=O)NCc2cc(-c3ccccc3Cl)no2)ccc1=O	-1.7	-2.5
O=C(/C=C/SCc1ccco1)NC1CCN(Cc2ccccc2)CC1	-1.6	56.0
O=C(O)CN1C(=O)/C(=C\c2cccc(OCc3ccc(F)cc3)c2)SC1=S	-5.7	-9.2
CC(C)[C@@H](N)C(=O)N[C@@H]1C=C(C(=O)NCC(N)=O)C[C@@H](OC(=O)Nc2ccccc2)[C@@H]1O	-10.0	-16.4
Cc1ccc(NC(=O)N2CCC3(CC2)SCCN3C(=O)CCc2ccccc2)cc1Cl	1.1	1.7
O=C(Cc1csc(SCC(=O)c2cccs2)n1)NCCC1=CCCCC1	12.4	12.8
Cc1nc(-c2ccccc2)sc1C(=O)Nc1c(C)nc2ccccn2c1=O	-2.6	-4.1
CC1=C(C(=O)OC(C)C)C(c2ccsc2)NC(=O)N1C (stereo not given)	-14.4	-21.4
CC(=O)N(CN1C(=O)c2ccccc2C1=O)c1ccc(F)cc1	2.7	0.7
COc1ccc(C2CC(=O)C3C(=Nc4ccccc4NC3c3ccc([N+](=O)[O-])cc3)C2)cc1OC (stereo not given)	-0.7	-4.5
COc1cc(OC)c(Br)c(-n2c(C(C)N(CCC(C)C)C(=O)c3cccc([N+](=O)[O-])c3)nc3ccccc3c2=O)c1 (stereo not given)	3.9	-1.3
COc1ccc(CCNS(=O)(=O)c2ccc(OC)c(OC)c2)cc1OC	4.1	1.0
O=C(Nc1nccs1)N(Cc1ccccc1)CC(F)F	5.1	2.3
COC(=O)[C@@H]1C[C@@H](NC(=O)c2ccc3c4c([nH]c3c2)CCCC4)CN1C	9.8	6.7
Cc1ccc(C(N)=NOC(=O)Cc2ccc(-c3ccccc3)cc2)cc1	-13.5	-18.8
CCCCn1nc(C(=O)N(CC)C(C)c2ccc(F)cc2)ccc1=O (stereo not given)	1.5	-0.7
Nc1ccc(N=Nc2ccccc2)c(N)n1	0.9&-8.6&-8.7	4.0&-14.4&-13.2
Cc1cnccc1CN(C)C(=O)c1cccc(NC(=O)C2CCCO2)c1 (stereo not given)	1.2	-2.5
Cc1ccc(-n2nnc(C(=O)Nc3ccc(F)c(F)c3)c2-c2cccnc2)cc1C	-3.1	-3.9
COc1ccc2sc(SCc3csc(Cc4ccc(F)cc4Cl)n3)nc2c1	4.1	1.7
CCOc1ccc(-n2nnnc2CNS(=O)(=O)c2cccs2)cc1	6.1	2.3
CCC(CC)C(=O)N(C)c1c(C)nc2c(OCc3ccccc3)cccn12	2.8	6.4
Cc1ccc2c(c1)C1(SCCN1C(=O)Nc1ccccc1F)C(=O)N2Cc1ccccc1 (stereo not given)	3.9	6.9
CCOc1nc(-c2cccc(C(F)(F)F)c2)n(-c2cccc(NCC(O)COc3ccccc3)c2)n1 (stereo not given)	-0.6	2.3
CCCc1nnc(NC(=O)N2CCSC(C)(C)C2)s1	1.3	0.1
FC(F)(F)c1ccc(-c2nc(CSc3ccc(Cl)c(Cl)c3)cs2)cc1	2.9	-0.8
CC(C)N(CC(=O)N(Cc1ccccc1)Cc1cccs1)S(=O)(=O)c1cccc(C(F)(F)F)c1	-3.2	2.7
CC(C)N(C(=O)c1cnc(Cl)c(Cl)c1)c1ccccc1	-3.1	-5.6
CCOC(=O)C1CCCN(c2c(NC3CCC(C)CC3)c(=O)c2=O)C1 (stereo not given)	1.2	-0.1
Clc1ccc(CN2CCN(c3ncnc4c3cnn4Cc3ccc(Cl)cc3Cl)CC2)c(Cl)c1	-10.7	-16.3
CCOC(=O)c1ccccc1NC(=S)N1CC(=O)N2CCc3cc(OC)c(OC)cc3C2C1 (stereo not given)	2.0	0.2
CCC1CN(CCn2cccn2)C(CC)CN1CCn1cccn1 (stereo not given)	4.8	3.7
O=C(c1ccc(C(F)(F)F)c(F)c1)N1CCC(CCc2ccc3c(c2)OCO3)CC1	0.0	2.8
COc1ccc2[nH]cc(C(=O)N3CCC4(CCCO4)CC3)c(=O)c2c1	9.9	8.0
CCCCSc1nnc2c(n1)OC(c1ccccc1OCCC)Nc1ccccc1-2 (stereo not given)	-1.6	-5.6
CCCCn1c(SCC(=O)O)nc2cc(C(F)(F)F)ccc21	2.8	1.2
Cc1nc2c(=O)n(CC(N)=O)nc(-c3ccc(Cl)cc3)c2s1	4.5	1.3
CC1(C(=O)Nc2cccc3cccnc23)CCN1C(=O)CC1CCCC1 (stereo not given)	5.7	1.3
O=C(c1cc(COc2ccc3c(c2)CCCC3)on1)N1CCC(c2ccncc2)CC1	5.7	5.4
O=C(C1CCC(Cn2c(=O)c3sccc3n(Cc3ccc(F)cc3)c2=O)CC1)N1CCOCC1 (stereo not given)	2.6	1.2
CC1(C)ON=C(c2ccc(F)cc2)NC1=O	-1.8	-3.2
Cc1ncc([N+](=O)[O-])n1CC[n+]1ccccc1	5.7	2.3
O=C(NCCC(=O)N1CCOCC1)C1CC(c2ccc3c(c2)OCO3)=NO1 (stereo not given)	29.3	23.1
Continuation:
SMILES	NPYLR7 agonist	NPYLR7 agonist max-min
CC(=O)Nc1ccc(NC(=O)C(C2CCCC2)N2CCN(C(=O)c3ccccc3Cl)CC2)cc1 (stereo not given)	-5.7	-7.5
O=C(Nc1ccccc1)N1CCC(Cc2ccc(-c3ccccc3)cc2)CC1	11.8	3.5
CC(NC(=O)c1cncc(Br)c1)c1ccc(Cl)cc1 (stereo not given)	-1.9	-2.7
O=C(CSc1n[nH]c(-c2ccc(Br)cc2)n1)NC1CCCC1	3.0	2.7
CCOC(=O)C1CCCCN1CC(=O)N1N=C(c2ccc(C)c(C)c2)CC1c1cccc(F)c1 (stereo not given)	13.6	14.6
COc1cccc(C2=N/C(=C\C(Cl)=C\c3ccccc3)C(=O)O2)c1	-0.2	-5.9
COc1ccc(CCN(C)S(=O)(=O)NCc2ccccc2)cc1OC	5.8	3.0
COc1cc(NS(=O)(=O)c2ccc(N)cc2)ncn1	10.1&0.1&0.9	-4.3&-6.4&-3.6
CCCN(C(=O)NCc1ccc(S(=O)(=O)N(C)C)s1)C1CCc2ccccc21 (stereo not given)	-3.8	-6.3
Cc1cc(NC(=O)NCC2CCN(C)c3ccccc32)no1 (stereo not given)	3.5	0.7
COc1cc([N+](=O)[O-])cc(CN2CCCn3cccc3C2c2ccc(C(F)(F)F)cc2)c1O (stereo not given)	2.0	10.0
N#Cc1cccc(C(=O)N2CCN(Cc3cccc(-c4noc(-c5cccnc5)n4)c3)CC2)c1	29.3	18.2
COc1cc(F)c(C(=O)N2CCOC(c3ccccc3)C2)c(F)c1 (stereo not given)	14.7	24.0
CCCCCNC(=O)N(C)C(C)C(C)S(C)(=O)=O (stereo not given)	-0.4	-1.2
CC(C)c1cc(C(C)C)n(C2CCN(C(=O)c3ccc4snnc4c3)CC2)n1	-4.6	2.1
N#Cc1cccc(CSc2nnnn2C2CC2)c1	3.5	5.2
CCOC(=O)C1(CCOc2ccccc2)CCN(Cc2cccc3nonc23)CC1	7.3&0.5	1.9&9.8
Cc1ccc(S(=O)(=O)Nc2nc(C#N)c(C#N)[nH]2)cc1	-4.7	5.5
Cc1noc(C)c1S(=O)(=O)N1CCOC(CCc2ccccc2)C1 (stereo not given)	18.5	11.7
O=C(NCC1CCCO1)c1coc(CN(CCc2c[nH]c3ccccc23)Cc2cccc(F)c2)n1 (stereo not given)	4.4	1.3
CNC(=O)CSc1nc(-c2ccccc2)c(NC(=O)c2ccccc2F)s1	-8.5	-15.2
CCc1cc2c(=O)c(-c3ccccc3)c(C(F)(F)F)oc2cc1OC	-1.7	-10.3
CC(C)c1ccc(-n2nc(C(=O)NCCN3CCOCC3)c(=O)n(Cc3ccccc3F)c2=O)cc1	-1.7	4.5
O=C(Nc1nc2c(s1)COc1ccccc1-2)c1cccc([N+](=O)[O-])c1	6.6	1.2
CC(C)NC(=O)c1cnc(N2CCN(CCc3ccccc3)C2=O)o1	-5.1	-6.4
CCc1c(C)sc2ncnc(N3Cc4cnn(CCO)c4C3)c12	2.3	1.1
Cc1cccc(CC(=O)NCCc2cc3cc(C)c(C)cc3[nH]c2=O)c1	0.3	41.1
CCN1CCN(C(c2cccc(OC)c2)C2Sc3ncnn3C2=O)CC1 (stereo not given)	2.8	2.0
Cc1nn(C(C)(C)C)c2c1C(c1ccsc1)C1C(=O)CCCC1=N2 (stereo not given)	0.8	0.0
COc1ccc(OC)c(S(=O)(=O)Oc2ccc(OCc3ccccc3)cc2)c1	4.5	7.6
CC(CCc1ccccc1)NC(=O)c1ccc(-c2cc(-c3cccc(C(F)(F)F)c3)n[nH]2)cc1 (stereo not given)	-2.9	4.9
CSc1cccc(-n2nnc(C(=O)OCc3ccccc3)c2C)c1	2.0	-4.2
CN(Cc1nc2ccccc2c(=O)[nH]1)C(=O)NCCCc1ccccc1	15.7	10.3
CC(C)(C)NC(=O)NCCNc1nc(-c2cccs2)nc2cc(Cl)ccc12	6.9	11.4

Only part of the results is shown (hit frequency here may not be typical).
